Bioassay records deposited in PubChem by several laboratories.
Mtb H37Rv: M. tuberculosis H37Rv growth inhibitors, H37Rv strain (AID 1626) | inhibition, % at 10 µM; hits with a dose series show IC50 in µM | M. tuberculosis H37Rv growth inhibition; higher % means a stronger effect | actives 0.95% (n = 220,000);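 active means confirmed in a dose series; inconclusive means inhibition above 80% but not taken into the dose series; inactive means below 80% or under 30% at every dose of the series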;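 further: bacteria incubated seven days before Alamar blue readout; 0% = bacteria only wells and 100% = bacteria with antibiotic wells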
YopH inh: blocks Yersinia enterocolitica YopH tyrosine phosphatase; fluorescence Ex485/Em525; actives 0.16% (n = 140,000); inhibition, %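 (about 10 µM by stock and volumes)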;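 active means inhibition of 50% or more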;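 further: controls were vehicle for no effect and minimum signal wells for full effect; inactives centre near -20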
Mtb betalactam: beta-lactam sensitization of Mtb H37Rv. M. tuberculosis H37Rv growth with meropenem, percent inhibition; hits of this screen are not shown here. inhibition, % at 25 µM. AID 434955. actives 0.27% (n = 330,000);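 active means about 74% or more and at least 40 points above the plate without the antibiotic, then above 30% in a dose series; inconclusive means first-round hits that could not be retested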;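 further: growth measured after seven days incubation then overnight dye step; 0% = bacteria only wells and 100% = bacteria with antibiotic; twin plates without the antibiotic show which effects depend on it; some results filed as inactive read as strong as hits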
RecA intein inh: blocks M. tuberculosis RecA intein splicing. P9WHJ3. cell-free RecA intein splicing, fluorescence. inhibition, %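 (about 9 µM by stock and volumes)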. actives 0.75% (n = 290,000); in the data active means inhibition above about 30%; inconclusive means no clear call, values can overlap the other calls;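 further: 0% = vehicle wells and 100% = reference inhibitor control wells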
Target sequence (P9WHJ3 whole entry, looked up): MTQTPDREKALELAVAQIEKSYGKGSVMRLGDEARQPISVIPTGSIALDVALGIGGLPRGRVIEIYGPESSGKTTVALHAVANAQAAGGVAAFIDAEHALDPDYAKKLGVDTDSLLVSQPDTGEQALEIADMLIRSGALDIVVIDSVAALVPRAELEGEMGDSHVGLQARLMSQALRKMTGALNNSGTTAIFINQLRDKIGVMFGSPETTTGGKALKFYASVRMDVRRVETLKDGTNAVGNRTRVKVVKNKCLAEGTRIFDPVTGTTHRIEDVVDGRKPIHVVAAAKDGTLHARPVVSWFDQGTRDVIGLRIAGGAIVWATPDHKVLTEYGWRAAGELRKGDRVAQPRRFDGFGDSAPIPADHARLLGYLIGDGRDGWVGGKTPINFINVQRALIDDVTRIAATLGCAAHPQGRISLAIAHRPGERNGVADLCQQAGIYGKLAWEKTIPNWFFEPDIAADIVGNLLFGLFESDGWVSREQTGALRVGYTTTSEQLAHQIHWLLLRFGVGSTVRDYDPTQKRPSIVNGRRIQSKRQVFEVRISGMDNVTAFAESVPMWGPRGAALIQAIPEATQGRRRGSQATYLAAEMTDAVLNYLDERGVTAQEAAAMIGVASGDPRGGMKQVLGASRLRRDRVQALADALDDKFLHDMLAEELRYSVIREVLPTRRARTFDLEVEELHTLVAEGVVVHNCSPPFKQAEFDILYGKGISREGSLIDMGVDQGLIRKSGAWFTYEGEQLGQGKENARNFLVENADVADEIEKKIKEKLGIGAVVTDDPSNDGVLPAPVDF
Arbovirus inh: antivirals against arbovirus infection. arbovirus infection cell-based antiviral screen. inhibition, % at 10 µM. actives 0.37% (n = 200,000);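 active means inhibition from about 30%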;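 further: bluetongue infection of BSR cells; cell survival read as ATP light after 72 h; 0% = infected wells without compound and 100% = uninfected wells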
Arbovirus inh repeat: further read-out of Arbovirus inh, marked with its call; inhibition, %; measured here: 10K subset replicate screen; many hits read low in the repeat;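 first of two repeat runs on a subset; 0% = infected and 100% = uninfected wells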
Starred values were filed as active, the others as inactive.

`O=C(Nc1ccccn1)C(=O)N1CCCCC1` gave Mtb H37Rv 1%, YopH inh -15, Mtb betalactam -4, RecA intein inh 2.1 and Arbovirus inh 1.
Screening O=c1c(Cl)c(NCC2CCCO2)cnn1C12CC3CC(CC(C3)C1)C2 (stereo not drawn) returned Mtb H37Rv 7%, Mtb betalactam -2, RecA intein inh -2.0 and Arbovirus inh 8.
For Cc1nonc1NC(=O)CSc1nc2ccc(Cl)cc2[nH]1 the results were Mtb betalactam 7 and RecA intein inh -0.9.
For Cc1cc(NC(=O)COC(=O)c2nccnc2N)n(-c2ccccc2)n1 the results were Mtb betalactam -4 and RecA intein inh 1.9.
`COC(=O)Cc1cc(=O)[nH]c(/N=C(\N)Nc2ccc(C(C)C)cc2)n1` gave Mtb H37Rv 0%, Mtb betalactam 5, RecA intein inh 0.1 and Arbovirus inh 3.
Cn1nnnc1SCCNC(=O)C1CCC(=O)N(CCc2ccccc2)C1 (stereo not drawn) was read as Mtb betalactam -1 and RecA intein inh 0.3.
For COc1ccc(Cn2nnnc2C(c2cc3cc(C)ccc3[nH]c2=O)N2CCOCC2)cc1 (stereo not drawn) the results were Mtb H37Rv -4%, YopH inh -42, Mtb betalactam -11, RecA intein inh -2.8 and Arbovirus inh -4.
Screening Cc1ccc(C)n1-c1ccccc1N1CCCCC1 returned Mtb H37Rv -5%, Mtb betalactam -9, RecA intein inh 3.9 and Arbovirus inh 18.
`COn1c(=O)c(-c2cccc(Br)c2)[n+]([O-])c2ccccc21` gave Mtb betalactam -6 and RecA intein inh -0.9.
For O=C(C[n+]1ccncc1)c1ccccc1 the results were Mtb betalactam 1 and RecA intein inh 2.8.
Screening COc1cccc(CN2CC(C(=O)NCCCCc3ccccn3)CCC2=O)c1 (stereo not drawn) returned Mtb betalactam -7 and RecA intein inh -0.8.
CCNc1nc(NCC)n2c(SCC(=O)Nc3ccc(F)cc3[N+](=O)[O-])nnc2n1 was read as Mtb H37Rv -6%, Mtb betalactam -10, RecA intein inh 1.5 and Arbovirus inh 5.
Screening O=C(CN1C(=O)c2ccccc2C1=O)OCC(=O)N1CCN(c2ccccc2)CC1 returned Mtb betalactam -3 and RecA intein inh -2.3.
For CCC(C)NC(=O)c1cn(CCOC)c(=O)c2c1c1ccccc1n2C (stereo not drawn) the results were Mtb betalactam 4 and RecA intein inh -0.4.
`COc1ccc(OC)c(N2CC(O)(c3ccccc3)[N+]3=C2SCCC3)c1` (stereo not drawn) gave Mtb H37Rv 0%, Mtb betalactam 7, RecA intein inh -4.9 and Arbovirus inh -2.
Screening CCOc1ccc(C2=CC(c3ccccc3)n3ncnc3N2)cc1 (stereo not drawn) returned Mtb H37Rv -1%, Mtb betalactam 95 and RecA intein inh 4.6.
`O=C1NC(=O)C2(Cc3ccccc3N3CCOCC32)C(=O)N1c1ccccc1` (stereo not drawn) gave Mtb H37Rv 0%, YopH inh -3, Mtb betalactam 3 and Arbovirus inh -16.
`COc1ccc(-n2c(C)nnc2SCC(=O)NC2CC2)cc1` gave Mtb betalactam 10 and RecA intein inh -0.7.
`Cc1cc(NC(=O)CSc2nncn2N)no1` gave Mtb H37Rv 6%, Mtb betalactam -6, RecA intein inh -4.5 and Arbovirus inh 3.
Screening CCc1ccc2[nH]c(=O)c(CN(CCN(C)C)C(=O)Nc3ccccc3OC)cc2c1 returned Mtb H37Rv 5%, YopH inh -41, Mtb betalactam -16, RecA intein inh 0.3 and Arbovirus inh 7.
`CSc1ccc(CN(C)C(=O)CNC(=O)c2sc3ccccc3c2Cl)cc1` gave Mtb betalactam -13 and RecA intein inh 0.4.
For Cc1csc2ncc(C(=O)Nc3ccc(C(F)(F)F)cc3)c(=O)n12 the results were Mtb H37Rv -1%, YopH inh -9, Mtb betalactam -2, RecA intein inh 0.0, Arbovirus inh 1 and Arbovirus inh repeat 7.
`CCOc1ccc(-n2c(=O)cc(N3CCN(c4ccccc4)CC3)[nH]c2=O)cc1` gave Mtb H37Rv -1%, YopH inh -19, Mtb betalactam 0, RecA intein inh 17 and Arbovirus inh 5.
For NS(=O)(=O)c1ccc(NC(=O)COC(=O)CCC2CCCCC2)cc1 the results were Mtb H37Rv -6%, YopH inh -20, Mtb betalactam -3, RecA intein inh -3.5 and Arbovirus inh -13.
`O=C(CSc1nnc2sc3ccccc3n12)NCc1ccco1` gave Mtb H37Rv -4%, YopH inh -27, Mtb betalactam -2, RecA intein inh 0.9 and Arbovirus inh -18.
Screening COc1cccc(-c2nc(CS(=O)(=O)CC(=O)NCCc3ccccc3)c(C)o2)c1 returned Mtb betalactam -6 and RecA intein inh 0.4.
O=C(NCCCN1CCOCC1)c1nn2c(C(F)(F)F)cc(-c3ccco3)nc2c1Cl was read as Mtb betalactam -2 and RecA intein inh -7.0.
For COc1ccc(C(=O)Nc2cc(C)cc(C)c2)cc1S(=O)(=O)N1CCOCC1 the results were Mtb H37Rv -1%, YopH inh -53, Mtb betalactam -9, RecA intein inh 2.6 and Arbovirus inh 0.
CCOC(=O)c1c(-c2ccc(OC)cc2)csc1NC(=O)CSc1nnc(C)c(=O)[nH]1 was read as Mtb H37Rv -4%, Mtb betalactam -3, RecA intein inh -2.7 and Arbovirus inh 0.
For C/C=C/C=N/Nc1nc(C)cc(=O)[nH]1 the results were Mtb H37Rv -6%, Mtb betalactam -1 and Arbovirus inh 2.
For O=C(Nc1ccc(NC(=S)NC(=O)c2ccccc2Cl)cc1)c1cccc(Cl)c1 the results were Mtb H37Rv 66%, YopH inh -24 and Mtb betalactam 59.
For Cc1[nH]c2ccc(-c3nnc(SCC(=O)c4ccccc4F)o3)cc2c1C the results were Mtb H37Rv 4%, YopH inh -40, Mtb betalactam 6, RecA intein inh 2.8 and Arbovirus inh -12.
For CCN(CC)CCCNC(=O)C(C)n1nc(C)c2sc3ccccc3c2c1=O (stereo not drawn) the results were Mtb H37Rv -7%, YopH inh -11, Mtb betalactam 8, RecA intein inh 0.3 and Arbovirus inh 12.
Cc1ccc(Nc2nc(CSc3n[nH]c(N)n3)cs2)cc1 was read as Mtb H37Rv 9%, Mtb betalactam 3 and RecA intein inh -2.0.
For N#Cc1cnc(NOCc2ccc(Cl)cc2)nc1 the results were Mtb H37Rv -9%, Mtb betalactam -7, RecA intein inh -1.1 and Arbovirus inh 27.
Screening CCOC(=O)N1CCN(c2cc3[nH]c(=S)[nH]c3cc2F)CC1 returned Mtb H37Rv -4%, YopH inh -22, Mtb betalactam -2, RecA intein inh -0.2 and Arbovirus inh -4.
`Cc1ccc(S(=O)(=O)NCC2(c3ccccc3)CCN(C)CC2)cc1` gave Mtb betalactam 1 and RecA intein inh -1.2.
`N#Cc1c(N)nc2c(c1N)CC(COc1ccccc1)O2` (stereo not drawn) gave Mtb H37Rv -8%, YopH inh -36, Mtb betalactam 0, RecA intein inh -2.0 and Arbovirus inh -2.
For O=C(COc1cccc(C(F)(F)F)c1)N1CCN(c2ccc(O)cc2)CC1 the results were Mtb H37Rv 0%, Mtb betalactam 1, RecA intein inh -9.4 and Arbovirus inh -22.
Screening CN(NC(=O)c1ccccc1)c1nc2ccccc2nc1C(F)(F)F returned Mtb H37Rv 21%, YopH inh -37, Mtb betalactam -8, RecA intein inh 0.9 and Arbovirus inh -28.
For CCOc1ccc(S(=O)(=O)N2CCOCC2)cc1NC(=O)CSCC(=O)Nc1cccc(C)c1 the results were Mtb betalactam 1 and RecA intein inh 1.1.
`CN1CCN(C(=O)C23CCC(C)(c4nc5ccccc5nc42)C3(C)C)CC1` (stereo not drawn) gave Mtb H37Rv -8%, YopH inh -19, Mtb betalactam 3, RecA intein inh 0.9 and Arbovirus inh 1.
`Cc1c(C(=O)N(C)CCc2cnn(C)c2)oc2c(F)cccc12` gave Mtb betalactam -2 and RecA intein inh 0.3.
O=C(Nc1ccccc1F)C1CCN(S(=O)(=O)c2cccc3nonc23)CC1 was read as Mtb betalactam 1 and RecA intein inh -0.2.
Screening Cc1ccccc1-n1ncc2c1CC(C)(C)CC2NC(=O)c1snnc1C (stereo not drawn) returned Mtb betalactam 6 and RecA intein inh 3.2.
Screening CO/N=C/C(C#N)c1ncc(C(F)(F)F)cc1Cl (stereo not drawn) returned Mtb H37Rv -1%, YopH inh -7, Mtb betalactam -2, RecA intein inh -2.1 and Arbovirus inh 12.
Cc1cccc(C)c1OCC(=O)N=Nc1c(O)[nH]c2ccc(Br)cc12 was read as YopH inh -20, Mtb betalactam 4, RecA intein inh 0.9 and Arbovirus inh -36.
For COc1ccc(CNC(=O)[C@H](C)NC(=O)C2CC(=O)N(c3ccc4c(c3)OCO4)C2)cc1 (stereo partly drawn) the results were Mtb betalactam -2 and RecA intein inh -6.1.
CCOc1ccc(N(CC(=O)Nc2c(C)cccc2C)S(=O)(=O)c2c(C)[nH]c(=O)[nH]c2=O)cc1 was read as Mtb H37Rv 8%, Mtb betalactam -3 and RecA intein inh -1.2.
Screening CCNC(=O)CSc1nc2sccc2c(=O)n1-c1ccccc1 returned Mtb betalactam -2 and RecA intein inh 2.0.
`Cc1c(C)n(Cc2ccc(F)cc2)c2ccc(C(=O)NCCN3CCOCC3)cc12` gave Mtb betalactam -1 and RecA intein inh 3.7.
Screening Cc1ccc(Nc2nc(CSc3nnnn3-c3ccccc3)cs2)cc1 returned Mtb H37Rv -6%, YopH inh -15, Mtb betalactam -1, RecA intein inh 4.4 and Arbovirus inh 2.
`O=C(O)C1C2C=CC(C2)C1C(=O)Nc1ccc2c(c1)OCCO2` (stereo not drawn) gave Mtb H37Rv -8%, YopH inh -24, Mtb betalactam 0, RecA intein inh 0.6 and Arbovirus inh -4.
For Clc1cccc(CSc2nccn2-c2ccccc2)c1 the results were Mtb H37Rv 6%, YopH inh 11, Mtb betalactam 3, RecA intein inh 12 and Arbovirus inh 0.
`CC1CN(c2ncnc3c2cnn3-c2ccc(Cl)cc2)CC(C)O1` (stereo not drawn) gave Mtb H37Rv 9%, YopH inh -35, Mtb betalactam 10, RecA intein inh 2.0, Arbovirus inh -6 and Arbovirus inh repeat 7.
Screening Cc1ccc(C(=O)Nc2ccccc2C(=O)N2CCCC(C)C2)cc1 (stereo not drawn) returned Mtb betalactam inconclusive and RecA intein inh 0.8.
For Cc1cc(CNC(=O)C2(C(F)(F)F)C/C(=C\CCO)CCCO2)nn1C (stereo not drawn) the results were Mtb H37Rv -10%, Mtb betalactam -3 and RecA intein inh -2.0.
`CCOC(=O)c1c(NC(=O)CN2C(=O)NC(C)(c3ccc(OC(F)F)cc3)C2=O)sc(C)c1C` (stereo not drawn) gave Mtb H37Rv 13%, YopH inh -28, Mtb betalactam 10, RecA intein inh 2.0 and Arbovirus inh -21.
N#CC1=C(N)Oc2n[nH]c(-c3ccc(F)cc3)c2C1c1cccc(OC(=O)N2CCOCC2)c1 (stereo not drawn) was read as Mtb H37Rv -7%, YopH inh -23, Mtb betalactam -3, RecA intein inh 80* and Arbovirus inh 0.
For COc1ccccc1CNC(=O)c1ccc(CS(=O)(=O)c2ccccc2OC)o1 the results were Mtb H37Rv -1%, YopH inh -9, Mtb betalactam -6, RecA intein inh -0.7 and Arbovirus inh 2.
`O=C(Cc1c(F)cccc1Cl)N1CCN(S(=O)(=O)c2cccc(F)c2)CC1` gave Mtb betalactam -3 and RecA intein inh 1.5.
`O=C(Nc1ccc(Oc2cccnc2)cc1)C1CCN(Cc2cccc(Cl)c2)CC1` gave Mtb betalactam 60 and RecA intein inh 3.5.
For CC1(C)Oc2cc3oc(-c4cc(O)cc(O)c4)cc3cc2CC1O (stereo not drawn) the results were Mtb H37Rv -7%, Mtb betalactam 15 and RecA intein inh -1.4.

2 compounds picked at random from the list so far, as already listed:
Cc1cccc(C)c1OCC(=O)N=Nc1c(O)[nH]c2ccc(Br)cc12 was read as YopH inh -20, Mtb betalactam 4, RecA intein inh 0.9 and Arbovirus inh -36.
`Cc1c(C)n(Cc2ccc(F)cc2)c2ccc(C(=O)NCCN3CCOCC3)cc12` gave Mtb betalactam -1 and RecA intein inh 3.7.

Sorted by molar mass (low to high): part of the list above
For CC1(C)Oc2cc3oc(-c4cc(O)cc(O)c4)cc3cc2CC1O (stereo not drawn) the results were Mtb H37Rv -7%, Mtb betalactam 15 and RecA intein inh -1.4.
Screening O=C(CN1C(=O)c2ccccc2C1=O)OCC(=O)N1CCN(c2ccccc2)CC1 returned Mtb betalactam -3 and RecA intein inh -2.3.
For COc1ccc(CNC(=O)[C@H](C)NC(=O)C2CC(=O)N(c3ccc4c(c3)OCO4)C2)cc1 (stereo partly drawn) the results were Mtb betalactam -2 and RecA intein inh -6.1.
O=C(NCCCN1CCOCC1)c1nn2c(C(F)(F)F)cc(-c3ccco3)nc2c1Cl was read as Mtb betalactam -2 and RecA intein inh -7.0.
N#CC1=C(N)Oc2n[nH]c(-c3ccc(F)cc3)c2C1c1cccc(OC(=O)N2CCOCC2)c1 (stereo not drawn) was read as Mtb H37Rv -7%, YopH inh -23, Mtb betalactam -3, RecA intein inh 80* and Arbovirus inh 0.

Only part of the results is shown, so the mix of outcomes need not match the whole.
